Compound activity from PubChem BioAssay.
PPARg SRC2 recr – agonists of SRC-2 recruitment by human PPARgamma; activation, % at 8 µM; 200,000 tested, 0.34% active; P37231; PPARgamma LBD-SRC-2 recruitment, biochemical; AID 1032; in the data active = activation above about 22%;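 note: 0% = vehicle and 100% = reference agonist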
Target sequence (P37231 whole entry, looked up, the tested form may be a part): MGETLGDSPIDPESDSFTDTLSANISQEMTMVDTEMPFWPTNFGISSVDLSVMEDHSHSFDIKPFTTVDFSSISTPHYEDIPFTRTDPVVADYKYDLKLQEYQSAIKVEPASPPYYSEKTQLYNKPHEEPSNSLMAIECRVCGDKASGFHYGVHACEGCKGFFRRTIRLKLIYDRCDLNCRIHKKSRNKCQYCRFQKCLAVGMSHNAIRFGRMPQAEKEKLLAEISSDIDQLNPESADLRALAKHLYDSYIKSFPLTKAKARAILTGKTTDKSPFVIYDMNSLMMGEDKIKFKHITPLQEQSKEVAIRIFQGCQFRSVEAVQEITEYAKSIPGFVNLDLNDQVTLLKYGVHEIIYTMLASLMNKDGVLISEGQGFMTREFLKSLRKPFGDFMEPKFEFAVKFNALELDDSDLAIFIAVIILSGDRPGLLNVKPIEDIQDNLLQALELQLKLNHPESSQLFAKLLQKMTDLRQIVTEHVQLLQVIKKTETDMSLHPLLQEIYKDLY
PPARg SRC1 recr – agonists of human PPARgamma SRC-1 coactivator recruitment; PPARgamma-SRC-1 coactivator recruitment biochemical assay; 200,000 tested, 0.41% active; P37231; activation, % at 8 µM; in the data active = activation above about 19%;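 note: 0% = DMSO and 100% = reference agonist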
Efa HMGR inh – inhibitors of class II HMG-CoA reductase from Enterococcus faecalis | AID 1066 | purified E. faecalis HMGR, NADPH absorbance 340 nm kinetic | 190,000 tested, 0.41% active | inhibition, % at 10 µM;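 active = inhibition above a set limit, the median over all tested compounds plus 3 SD, cut at about 9.5% in these data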;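 note: enzyme runs in reverse so mevalonate oxidation gives rising NADPH absorbance; 0% = complete reaction with DMSO and 100% = background rate lacking mevalonate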
TR-FRET SRC-2 ct – flags TR-FRET format artefacts in PPARgamma SRC-2 recruitment agonist screen. TR-FRET artefact counter-screen; stronger effect = higher value. 200,000 tested, 0.4% active. AID 1049. TR-FRET ratio at 8 µM; in the data active = TR-FRET ratio above about 2000; note: inactives centre near 1500; reference of the scale not given here
PPARg SRC3 recr – PPARgamma-driven SRC-3 recruitment agonism; P37231; biochemical PPARgamma/SRC-3 coactivator recruitment assay; activation, % at 8 µM; 200,000 tested, 0.26% active; AID 731; in the data active = activation above about 23%;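 note: 0% = DMSO and 100% = reference agonist; some compounds past the cut are filed as inactive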
The depositor's hits bear a star; · = no result given.

SMILES | PPARg SRC2 recr | PPARg SRC1 recr | Efa HMGR inh | TR-FRET SRC-2 ct | PPARg SRC3 recr
O=C(Nc1ncn[nH]1)c1ccc(S(=O)(=O)N2CCOCC2)cc1 | -6.6 | -10.2 | -1.2 | 1479 | -3.1
Cc1ccc(-n2ncc3c(NNC(=O)c4ccco4)ncnc32)c(C)c1 | -7.7 | 1.4 | 0.3 | 1530 | 2.3
NS(=O)(=O)c1ccc(NCc2ccccc2OCc2ccc(F)cc2)cc1 | 0.1 | -1.2 | -1.6 | 1477 | -5.0
CCc1ccccc1NC(=S)NC1CC2CCCC(C1)N2Cc1cccs1 (centres undefined) | 7.1 | 2.5 | 0.7 | 1656 | -2.8
O=c1[nH]c(=O)n([C@H]2C[C@H](O)[C@@H](CO)O2)cc1C(F)(F)F | -1.9 | 2.2 | 8.7 | 1363 | 0.6
COc1ccccc1NC(=S)NNC(=O)c1nn(C)c(C)c1Br | -3.8 | 1.4 | 3.7 | 1720 | 7.7
C[C@H]1C[C@@H]2[C@H]([C@@H](O)C[C@@]3(C)[C@H]2CC[C@]3(O)C(=O)CO)[C@@]2(C)C=CC(=O)C=C12 | 2.3 | -0.7 | -4.2 | 1409 | 0.5
COc1ccc(NC(=O)c2sccc2SCc2cccc(C(F)(F)F)c2)cc1 | 8.4 | -2.0 | -6.0 | 1588 | 5.2
Cc1ccc(S(=O)(=O)N2CCCCC2)cc1C(=O)Nc1ncn[nH]1 | · | · | -0.5 | · | ·
COc1ccc(OCC(=O)NNC(=O)c2ccccn2)cc1 | -1.1 | -8.8 | -5.3 | 1540 | -1.8
CCOc1cc(C(=O)Nc2ncn[nH]2)cc(OCC)c1OCC | 4.7 | 8.4 | 3.4 | 1722 | 2.3
CC(O)Cn1cnc2c1c(=O)n(C)c(=O)n2C (centres undefined) | 10.3 | 3.3 | -2.1 | 1557 | 0.7
Cc1ccc(N2CCN(C(=O)CCc3nc4ccccc4[nH]3)CC2)c(C)c1 | -4.4 | 5.5 | -4.2 | 1299 | 0.7
NC(CO)C(=O)NNCc1ccc(O)c(O)c1O (centres undefined) | -3.0 | -3.8 | 2.2 | 1392 | 3.3
CCCCNC(=S)NNC(=O)c1nn(C)c(C)c1Cl | -1.2 | 5.2 | -5.8 | 1361 | -8.3
CC(=O)NC(=S)NNC(=O)C(c1ccccc1)c1ccccc1 | -0.5 | -2.3 | -0.6 | 1686 | -5.0
CCOc1cc(CNc2ccccc2)cc(Br)c1OCc1ccccc1F | 1.4 | 3.8 | 0.9 | 1709 | -4.1
C=C(C)c1cccc(C(C)(C)NC(=O)NC(c2ccccc2)c2ccc(OC)cc2)c1 (centres undefined) | -2.4 | 13.9 | -4.0 | 1636 | 3.2
O=C(CN1C(=O)C2C3C=CC(C3)C2C1=O)Nc1nc(SCc2ccc(Cl)cc2)n[nH]1 (centres undefined) | 11.9 | 9.1 | -2.0 | 1921 | 6.9
c1ccc(Cn2c(CNc3nc4ccccc4n3CCN3CCCCC3)nc3ccccc32)cc1 | -1.0 | 0.5 | -2.8 | 1539 | 0.4
COc1cccc(/C=N/Nc2nn3cnnc3c3ccccc23)c1O | 8.8 | -2.6 | -4.5 | 1633 | 3.1
CCCCCCCCCCCCCCCCn1cc[n+](C)c1 | -4.1 | 0.3 | -5.9 | 1631 | -1.8

A second format for part of the listing above.
The line under a structure holds: PPARg SRC2 recr	PPARg SRC1 recr	Efa HMGR inh	TR-FRET SRC-2 ct	PPARg SRC3 recr
> CCOc1cc(CNc2ccccc2)cc(Br)c1OCc1ccccc1F
→ 1.4	3.8	0.9	1709	-4.1
> C[C@H]1C[C@@H]2[C@H]([C@@H](O)C[C@@]3(C)[C@H]2CC[C@]3(O)C(=O)CO)[C@@]2(C)C=CC(=O)C=C12
→ 2.3	-0.7	-4.2	1409	0.5
> O=c1[nH]c(=O)n([C@H]2C[C@H](O)[C@@H](CO)O2)cc1C(F)(F)F
→ -1.9	2.2	8.7	1363	0.6
> COc1ccccc1NC(=S)NNC(=O)c1nn(C)c(C)c1Br
→ -3.8	1.4	3.7	1720	7.7
> Cc1ccc(-n2ncc3c(NNC(=O)c4ccco4)ncnc32)c(C)c1
→ -7.7	1.4	0.3	1530	2.3
> NS(=O)(=O)c1ccc(NCc2ccccc2OCc2ccc(F)cc2)cc1
→ 0.1	-1.2	-1.6	1477	-5.0

An excerpt; count on the stated rates, not on these rows.
